Source: PubChem
NPYLR7 ag – mosquito NPYLR7 agonism; HEK293T NPYLR7/Galpha15, GCaMP6s calcium fluorescence; activation, % at 10 µM; 270,000 compounds, 0.15% hits; in the data active means activation above about 40%;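 further: 0% = vehicle and 100% = reference agonist at the receptor; some compounds past the cut are filed as inactive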
NPYLR7 ag max-min – recorded beside NPYLR7 ag, whose call it bears; activation, %; measured here: Max-Min RFU normalised activation; some inactives read as strong as hits;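 span of the calcium signal over five minutes; 0% = vehicle and 100% = native peptide agonist; compound fluorescence can raise it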
Active calls of the source: *; & = joins results of further samples. A portion of the library; rates above refer to the full screens.

SMILES | NPYLR7 ag | NPYLR7 ag max-min
COc1ccc(CCN(C)CCc2ccc(OC)c(OC)c2)cc1OC | 1 | 10
Cc1cc(-n2cnnc2C(O)c2ccccc2)n(C)n1 (stereo not drawn) | 13 | 11
O=C(c1ccc([N+](=O)[O-])cc1)N1CCN(c2nc(Cc3ccccc3)nc3c2cnn3-c2ccccc2)CC1 | 7 | 13
COc1ccccc1CNC(=O)CN[C@@H]1C[C@@H]2C[C@H]([C@H]1C)C2(C)C | 15 | 6
CC1CCCC2(C1)OCC(C(=O)NCc1ccco1)N2C(=O)c1cccc(C(F)(F)F)c1 (stereo not drawn) | 0 | 13
CCOc1nc(-c2ccc(C(F)(F)F)cc2)n(-c2cccc(NC(=O)c3cccc(OC)c3)c2)n1 | -3 | -3
CC(C1CC1)n1nccc1NC(=O)CN1CCCc2ccccc21 (stereo not drawn) | 1&-5 | 0&-6
CCCCc1nn2c(=O)c(NC(=O)c3ccccc3)cnc2s1 | 1 | 2
COC(=O)C1=C(C)NC(C)=C(C(=O)OC)C1c1cc(Cl)ccc1OC(F)F | 1 | -4
Cc1cc(C)cc(-c2nc3ccccn3c2NC(=O)Cc2ccc(F)cc2)c1 | -2 | 5
CCOC(=O)c1ccc(NC(=O)NCc2nnc(SCc3ccccc3C)n2-c2cc(Cl)ccc2Cl)cc1 | -2 | 14
C=CCn1c(-c2ccc(OC)c(OC)c2)n[nH]c1=S | -7 | -2
CCOC(=O)c1ccc(OC2CC3CCC(C2)N3C(=O)c2ccc(CSc3nc(-c4ccccc4)cs3)cc2)cc1 (stereo not drawn) | 9 | 3
CCOC(=O)C1(Cc2ccc(F)cc2)CCCN(C(=O)c2cn3c(C)cccc3n2)C1 (stereo not drawn) | 3 | -1
COc1ccc(N(C)S(=O)(=O)c2cc(C(=O)O)c(C)cc2C)cc1OC | 12 | 14
O=C(O)c1ccc(-n2cccn2)nc1 | -2 | -5
CCOC(=O)C1CCCN(C(=O)c2nn(-c3cccc(C)c3)c(=O)n(Cc3ccc(C(F)(F)F)cc3)c2=O)C1 (stereo not drawn) | 11 | 7
O=C(NC(c1ccccn1)C(F)(F)F)c1cn(-c2ccccc2)nn1 (stereo not drawn) | 8 | 7
O=C(COC(=O)C=CC(=O)OCC(=O)NC1CCCC1)NC1CCCC1 | 1 | 34
COc1ccccc1N1CCN(C(=O)c2cc(-c3ccccc3F)n3nc(C(C)(C)C)cc3n2)CC1 | 9 | 12
CC(c1ccncn1)N(C)C(=O)CCNC(=O)c1ccccc1F (stereo not drawn) | 4 | 2
CCn1c(SCC(=O)N(CCC#N)CCC#N)nc2ccccc2c1=O | -7 | -10
Cc1nc(SCC(=O)N(C)C2CCCc3ccccc32)c(C#N)c(C)c1C (stereo not drawn) | -1 | 0
COc1cccc(Cn2c(=O)c(C(=O)NCCN(C)C)nn(-c3ccc(C(F)(F)F)cc3)c2=O)c1 | 18 | 18
CC(=O)N1N=C(c2ccccc2)OC1C(=O)N[C@@H]1CCSC1=O (stereo partly drawn) | 8 | 0
The results go on.
SMILES | NPYLR7 ag | NPYLR7 ag max-min
CC1c2ccsc2CCN1Cc1nnc(-c2ccccc2Cl)o1 (stereo not drawn) | 1 | -1
O=C(Nc1cccc(-n2cccn2)c1)C1CCCN1C(=O)Cn1cccn1 (stereo not drawn) | 6 | 1
Cc1ccnn1-c1cccc(NC(=O)NCCN2CCOCC2)c1 | 9 | 5
CCC(C)(NC(=O)c1ccc(C)s1)c1nccs1 (stereo not drawn) | 6 | 3
Cc1ccc(C(=O)N2CCCC(Nc3ccc(F)cc3)C2)c(=O)[nH]1 (stereo not drawn) | 8 | 5
Cc1ccc(S(=O)(=O)Nc2ccccn2)c(C)c1C | -1 | -2
CCC1CCCC(NC(=O)C(=O)Nc2ccc3c(c2)CCO3)C1 (stereo not drawn) | 11 | 9
Cc1nn(CC(=O)Cc2c(F)cccc2Cl)c(=O)c(C#N)c1C | 8 | 5
CN1C(=O)C2(CCN(C(=O)NCc3ccco3)CC2)c2ccccc21 | 4 | 2
CC(C)COc1nc(-c2ccc(F)cc2)n(-c2ccc(NC(=O)c3ccco3)cc2)n1 | 36 | 36
Cc1csc(CN(C)C(=O)c2ccc3oc(Cc4ccc(Cl)cc4)nc3c2)n1 | 6 | 5
CC(=O)Nc1c(-c2ccc3c(c2)OCO3)c(=O)c2ccccc2n1C | 5 | 0
CCOC(=O)CN([C@H]1C[C@H]2CCOC[C@H]2C1)S(=O)(=O)c1ccccc1 | 3 | 14
CN(C)C(=O)CN1C(=O)[C@]2(C)[C@H](c3ccccc31)[C@@H](C(N)=O)CN2C(=O)c1ccccc1 | 30 | 34
COc1c(F)cc(CN2CCN(c3nc(C)ncc3C)CC2)cc1Cl | 23 | 14
CCOC(=O)C1=C(C)C2(Br)C3C(=O)N(Cc4ccccc4)C(=O)C3C1(C)C1C(=O)N(Cc3ccccc3)C(=O)C12 (stereo not drawn) | -3 | -8
Cc1oc(-c2ccc(NC(=O)Cc3ccccc3)cc2)nc1CNC(=O)c1c(F)ccc(F)c1F | 19 | 7
CCC(Oc1ccccc1)C(=O)N1CCC(c2ccccc2OC)CC1 (stereo not drawn) | 1 | 9
CC=CC(=O)OCC(=O)Nc1sc2c(c1C(N)=O)CCCC2 | -11 | -10
O=C(Cc1cccc2ccccc12)Nn1cnc2c(cnn2-c2ccccc2)c1=O | 5 | 2
Cc1cccc(-c2ccnc3nc(N4CCN(C(=O)c5ccccc5C(F)(F)F)CC4)nn23)c1 | 1 | -3
Cc1ccsc1C=NN1CCN(C)CC1 | 4 | 3
Cc1ccc(C2c3cccn3-c3ccccc3N2C(=O)CN(C(=O)c2ccc(C(F)(F)F)cc2)C(C)C)cc1 (stereo not drawn) | 2 | 13
O=C(c1ccco1)N(Cc1cccnc1)Cc1nccn1Cc1cccc(C(F)(F)F)c1 | 0 | 4
COCCN1C(=O)C(c2c(C)[nH]n(-c3cccc(Cl)c3)c2=O)=C(N2CCC(C)CC2)C1=O | 27 | 30

A different layout for part of the listing above:
Values run as follows: NPYLR7 ag, NPYLR7 ag max-min
CC1c2ccsc2CCN1Cc1nnc(-c2ccccc2Cl)o1 (stereo not drawn)
→ 1, -1
O=C(Nc1cccc(-n2cccn2)c1)C1CCCN1C(=O)Cn1cccn1 (stereo not drawn)
→ 6, 1
Cc1ccnn1-c1cccc(NC(=O)NCCN2CCOCC2)c1
→ 9, 5
CCC(C)(NC(=O)c1ccc(C)s1)c1nccs1 (stereo not drawn)
→ 6, 3
Cc1ccc(C(=O)N2CCCC(Nc3ccc(F)cc3)C2)c(=O)[nH]1 (stereo not drawn)
→ 8, 5
Cc1ccc(S(=O)(=O)Nc2ccccn2)c(C)c1C
→ -1, -2
CCC1CCCC(NC(=O)C(=O)Nc2ccc3c(c2)CCO3)C1 (stereo not drawn)
→ 11, 9
Cc1nn(CC(=O)Cc2c(F)cccc2Cl)c(=O)c(C#N)c1C
→ 8, 5
CN1C(=O)C2(CCN(C(=O)NCc3ccco3)CC2)c2ccccc21
→ 4, 2
CC(C)COc1nc(-c2ccc(F)cc2)n(-c2ccc(NC(=O)c3ccco3)cc2)n1
→ 36, 36
Cc1csc(CN(C)C(=O)c2ccc3oc(Cc4ccc(Cl)cc4)nc3c2)n1
→ 6, 5
CC(=O)Nc1c(-c2ccc3c(c2)OCO3)c(=O)c2ccccc2n1C
→ 5, 0
CCOC(=O)CN([C@H]1C[C@H]2CCOC[C@H]2C1)S(=O)(=O)c1ccccc1
→ 3, 14
CN(C)C(=O)CN1C(=O)[C@]2(C)[C@H](c3ccccc31)[C@@H](C(N)=O)CN2C(=O)c1ccccc1
→ 30, 34
COc1c(F)cc(CN2CCN(c3nc(C)ncc3C)CC2)cc1Cl
→ 23, 14
CCOC(=O)C1=C(C)C2(Br)C3C(=O)N(Cc4ccccc4)C(=O)C3C1(C)C1C(=O)N(Cc3ccccc3)C(=O)C12 (stereo not drawn)
→ -3, -8
Cc1oc(-c2ccc(NC(=O)Cc3ccccc3)cc2)nc1CNC(=O)c1c(F)ccc(F)c1F
→ 19, 7
CCC(Oc1ccccc1)C(=O)N1CCC(c2ccccc2OC)CC1 (stereo not drawn)
→ 1, 9
CC=CC(=O)OCC(=O)Nc1sc2c(c1C(N)=O)CCCC2
→ -11, -10
O=C(Cc1cccc2ccccc12)Nn1cnc2c(cnn2-c2ccccc2)c1=O
→ 5, 2
Cc1cccc(-c2ccnc3nc(N4CCN(C(=O)c5ccccc5C(F)(F)F)CC4)nn23)c1
→ 1, -3
Cc1ccsc1C=NN1CCN(C)CC1
→ 4, 3
Cc1ccc(C2c3cccn3-c3ccccc3N2C(=O)CN(C(=O)c2ccc(C(F)(F)F)cc2)C(C)C)cc1 (stereo not drawn)
→ 2, 13
O=C(c1ccco1)N(Cc1cccnc1)Cc1nccn1Cc1cccc(C(F)(F)F)c1
→ 0, 4
COCCN1C(=O)C(c2c(C)[nH]n(-c3cccc(Cl)c3)c2=O)=C(N2CCC(C)CC2)C1=O
→ 27, 30

Later entries:
SMILES | NPYLR7 ag | NPYLR7 ag max-min
Cc1cc(C)cc(CC(=O)N2CCC(n3cnc4ccc(C)cc43)CC2)c1 | 3 | 4
COCC(C)(O)C(=O)N1CC(C)OC(C)C1 (stereo not drawn) | -4 | -8
C[C@@H]1NC(=O)NC1=O | -2&0 | -5&-7
CC1(C(=O)NS(=O)(=O)c2ccc(F)cc2F)CCN1C(=O)c1cccc2ccccc12 (stereo not drawn) | 2 | 1
NC1=NC(=O)C2(COC(c3cc(Br)c(Br)o3)OC2)S1 (stereo not drawn) | 11 | 12
CCCN(Cc1cccnc1)C(=O)c1cccc(C(=O)OC)c1 | -2 | -4
CCC(C)NC(=O)CN1CCN(C(=O)Nc2cccc(C)c2C#N)CC1 (stereo not drawn) | -5 | -11
Nc1c(C(=O)Nc2cccc(C(F)(F)F)c2)c2ccccn2c1C(=O)c1ccccc1 | -4 | -11
CCOC(=O)CSc1nnc2n3ncnc3c3c4c(sc3n12)CC(C)CC4 (stereo not drawn) | 2 | -2
O=C(OCc1cc(-c2ccc(F)cc2)on1)C1CC1 | 1 | -2
Cc1ccc(/C=C2\Oc3cc(OCc4ccc([N+](=O)[O-])cc4)ccc3C2=O)o1 | -11 | -12
COc1ccc2c(c1)OC[C@@H](Cc1ccc(OC)c(OC)c1)[C@H]2O | -12 | -16
CCc1ccc2occ(CC(=O)NCc3n[nH]c4c3CCC4)c2c1 | -1 | -5
COC[C@H]1C[C@H]2C[C@H](OC(=O)c3ccnn3C)[C@@H](NC(=O)c3ccnn3C)[C@@]2(O)CO1 | 16 | 11
CC(=O)c1ccc(NC(=O)c2occc2-c2cccs2)cc1 | 10 | 7
CCc1ccc(N2CC(C)Cn3c2nc2c3c(=O)n(CC(C)=O)c(=O)n2C)cc1 (stereo not drawn) | 0 | -3
CN(C)c1ccc(C(=O)NCCn2ncccc2=O)cc1 | 2 | -3
Cc1occc1CNC(=O)c1c(C(F)(F)F)nn(C)c1C(F)(F)F | 1 | 0
Cc1ccc(C)c(CS(=O)C(C)C(=O)Nc2ccc(Cl)cc2C(F)(F)F)c1 (stereo not drawn) | 1 | 2
O=C(N1CCCN(c2nc(Cc3ccc(F)cc3)ns2)CC1)C12CC3CC(CC(C3)C1)C2 | -8 | -11
Cc1cc(C(=O)N2CCN(c3cccc(C(F)(F)F)c3)CC2)nc2cc(C(C)(C)C)nn12 | -5&9 | -2&23
COC(=O)c1ccc(NC(=O)CCc2c(C)nn(-c3nc(C)cc(=O)[nH]3)c2C)cc1 | 0 | 2
Cc1ccc(S(=O)(=O)N2CC(=O)OC(Cn3c4ccccc4c4ccccc43)C2)cc1 (stereo not drawn) | -1 | 19
Cc1ccccc1-n1c(SCc2nc(C(=O)N3CCN(Cc4ccccc4)CC3)cs2)nnc1-c1ccco1 | 20 | 19
CSc1nc2c(c(=O)n1-c1ccc(OC(F)(F)F)cc1)SCC2 | -3 | -8
The list continues:
SMILES | NPYLR7 ag | NPYLR7 ag max-min
COc1ccc(-c2cc(=O)c3c(OC)c(OC)c(OC)c(OC)c3o2)cc1OC | -4&-11 | -11&-19
Cc1cnc(NC(=O)c2cc(S(=O)(=O)NCC(C)C)ccc2Br)s1 | 10 | 4
COc1ccc(-c2cc(C(=O)NCCCN3CCCCC3C)n(-c3ccc([N+](=O)[O-])cc3)n2)cc1 (stereo not drawn) | 20 | 19
Cc1cccc(CN2CCN(c3ccc(Cl)cc3C)C(=O)C2C)c1 (stereo not drawn) | 1 | 2
O=C(CCCc1cccs1)NC1CC(=O)N(Cc2ccccc2Cl)C1 (stereo not drawn) | 3 | -1
COc1ccc(-c2cc(C(F)(F)F)n3ncc(C(=O)Nc4sc5c(c4C#N)CCCCC5)c3n2)cc1 | 27 | 15
O=C(Nc1nc2c(s1)CCCC2)c1cccs1 | 8 | 5
O=C(CCc1ccccn1)NC1CCCN(CCc2ccccc2)C1 (stereo not drawn) | 9 | 4
CC1=CC[C@@H]2CN(C(=O)c3cccc(S(C)(=O)=O)c3)C[C@@H]2C1 | 1 | -1
Cn1ncnc1NC(=O)Cc1cccc(Cl)c1 | -10 | -11
C=CCCC(=O)N1CCCC1C(=O)Nc1cccc(-n2cccn2)c1 (stereo not drawn) | 1 | 0
O=C(C1CCCC1)N1CCC(n2c(=O)oc3ccc(F)cc32)CC1 | 12 | 16
Cc1nc(=O)c2ccccc2n1C1=CCN(Cc2ccccc2)CC1 | -9 | -11
CCCC(C)NC(=O)c1ccccc1-c1ncc(-c2ccccc2F)o1 (stereo not drawn) | -1 | -1
